CBX7 inh – blocks human CBX7 binding to H3K27me3 peptide; O95931; AlphaScreen His6-CBX7 / biotin-H3K27me3 peptide binding; hits give low values; normalised signal (fraction of DMSO) (test concentration not listed); 66,000 tested, 1.1% active; AID 1224903; in the data active means normalised signal below about 0.5;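 further: 100 nL library stock added to about 20 µL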
Target sequence (O95931 whole entry, looked up): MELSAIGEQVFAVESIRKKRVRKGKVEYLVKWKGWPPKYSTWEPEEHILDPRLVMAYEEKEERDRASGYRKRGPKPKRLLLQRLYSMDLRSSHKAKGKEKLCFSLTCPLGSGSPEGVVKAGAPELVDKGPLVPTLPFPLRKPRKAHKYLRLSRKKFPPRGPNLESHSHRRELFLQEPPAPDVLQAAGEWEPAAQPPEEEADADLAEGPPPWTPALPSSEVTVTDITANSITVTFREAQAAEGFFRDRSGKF
CBX7 inh z-score – second read-out of CBX7 inh, no call of its own (marks repeat the call); z-score; measured here: z-score of CBX7 signal; some inactives read as strong as hits; reference of the scale not given here;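 same signal on another scale; lower means less binding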
An asterisk follows results filed as active; & = joins results of further samples. A portion of the library, so the mix of outcomes need not match the whole.

Results follow in this order: CBX7 inh	CBX7 inh z-score
1. COc1ccc(OC)c(NC(=O)c2c(NCc3cccs3)sc3c2CCC(C)C3)c1 (configuration not stated)
 : 0.7	-16
2. CCCCn1c(=N)n(CCOc2ccc(OC)cc2)c2ccccc21
 : 0.91	-2.3
3. COc1ccc(CCNC(=O)c2cc(-c3ccccc3OC)on2)cc1OC
 : 0.99	-0.14
4. CCOc1ccc(-n2c(Cc3cc(=O)[nH]c(=O)[nH]3)nnc2SCC(=O)N2CCCC2)cc1
 : 1	0.69
5. COc1cccc(OC)c1C(=O)Nc1cccc(-c2nc3ccccc3[nH]2)c1
 : 0.93	-0.074
6. Nc1nc(-c2ccc(Cl)cc2)c(-n2cncn2)s1
 : 1	0.9
7. CC(=O)c1cccc(Nc2nc(-c3cccs3)cs2)c1
 : 0.86	-1.8
8. COCCNC(=O)c1cc(Nc2ccc(C)c(C)c2)nc2ccccc12
 : 1	0.38
9. COCCNC(=O)CN1C(=O)CC(C)(C)Sc2ccccc21
 : 0.98	-0.41
10. Cc1ccc(CNC(=O)CNc2ccccc2-c2nc3ccccc3[nH]c2=O)cc1
 : 1	0.58

Record cards, as listed above. Order of values: CBX7 inh | CBX7 inh z-score
Results for `CCCCn1c(=N)n(CCOc2ccc(OC)cc2)c2ccccc21` = 0.91 | -2.3
Results for `COc1ccc(OC)c(NC(=O)c2c(NCc3cccs3)sc3c2CCC(C)C3)c1` (configuration not stated) = 0.7 | -16

The list continues.
Results follow in this order: CBX7 inh	CBX7 inh z-score
11. CC(C)C(NS(=O)(=O)c1cccs1)C(=O)NCCc1ccccc1 (configuration not stated)
 : 1.1	1.3
12. O=C(NC1CCCCC1)C1(S(=O)(=O)c2ccc(Cl)cc2)CC1
 : 1.2	3
13. CN(CC(=O)Nc1ccc(Cl)cc1)S(=O)(=O)c1cccc2cccnc12
 : 1	-0.046
14. Cc1ccn2c(Nc3ccccc3C)c(-c3ccc(N4CCOCC4)cc3)nc2c1
 : 0.61	-15
15. NC(=O)CSc1oc(-c2cccs2)nc1S(=O)(=O)c1ccc(Br)cc1
 : 0.95	-0.092
16. Cc1ccc(N2C(=O)CC(C(C)c3ccccc3)C2=O)cc1Br (configuration not stated)
 : 1	0.99
17. CCC(=O)N1CCc2cc(S(=O)(=O)NCCC(=O)Nc3ccc(C(C)C)cc3)ccc21
 : 0.91	-1.7
18. Cc1cccc(NC(=O)C2CCN(S(=O)(=O)c3cccc4cccnc34)CC2)c1C
 : 0.98	-0.29
19. Cc1ccccc1Nc1c(-c2ccc(N(C)C)cc2)nc2cnccn12
 : 1.1	1.5
20. COc1ccc(-c2nn(-c3ccccc3)cc2C(=O)Nc2ccc(F)cc2)cc1OC
 : 0.85	-2.1

3 compounds from above, sorted by their value in CBX7 inh z-score, highest first.
item	Compound	CBX7 inh z-score
19	Cc1ccccc1Nc1c(-c2ccc(N(C)C)cc2)nc2cnccn12	1.5
11	CC(C)C(NS(=O)(=O)c1cccs1)C(=O)NCCc1ccccc1 (configuration not stated)	1.3
16	Cc1ccc(N2C(=O)CC(C(C)c3ccccc3)C2=O)cc1Br (configuration not stated)	0.99

(further entries)
Results follow in this order: CBX7 inh	CBX7 inh z-score
21. CC(C)NC(=O)Cc1c(C(=O)O)[nH]c2ccc(Cl)cc12
 : 1	0.41
22. COc1ccc(C2(CNC(C)=O)CCOCC2)cc1OC
 : 1.1	0.37
23. Cc1nc(Nc2ccc(C(F)(F)F)cc2)c2c3c(sc2n1)CCCC3
 : 0.88	-0.16
24. COc1ccccc1-c1n[nH]c2nc(C)cc(=O)n12
 : 0.77	-0.91
25. COc1cccc(C(=O)N2CC(=O)Nc3ccc(C)cc3C2c2ccccc2)c1OC (configuration not stated)
 : 0.98	-0.56
26. CCc1ccc(-n2c(C)nc3cc(C(=O)NC(C)CC)ccc32)cc1 (configuration not stated)
 : 0.98	-0.32
27. O=C(Nc1ccc(S(=O)(=O)Nc2cnc3ccccc3n2)cc1)c1ccc(Br)cc1
 : 1	1.2
28. CCOC(=O)c1c(NC(=O)c2ccc(OC)cc2)sc2c1CCCC2
 : 1.2	2.3
29. Cc1onc(-c2c(Cl)cccc2Cl)c1C(=O)N(Cc1ccccc1)Cc1ccccc1
 : 0.68	-2
30. COc1ccc(CNS(=O)(=O)c2ccc3c(c2)CC(C)N3C(C)=O)cc1 (configuration not stated)
 : 1	0.21
31. CC(=O)Nc1nc(C)c(-c2csc(NCc3ccccc3)n2)s1
 : 0.85	-2.1
32. CC(C)c1cccc(C(C)C)c1NC(=O)C(C(C)C)N1C(=O)c2ccccc2C1=O (configuration not stated)
 : 1	0.24
33. O=C(CCCn1c(=O)[nH]c2ccccc2c1=O)NC1CC1
 : 1.1	0.22
34. CCN(CCCNC(=O)Cc1c(C(=O)O)[nH]c2ccc(Cl)cc12)c1ccccc1
 : 1.3	2.5
35. Cc1cc2c(cc1C)NC(c1ccsc1)C1=C(CC(C)(C)CC1=O)N2 (configuration not stated)
 : 0.99	-0.045
36. CCN(CC)c1ccc(NC(=O)C2CCN(S(=O)(=O)c3ccc(C)cc3)CC2)cc1
 : 0.68	-5
37. COc1ccc2nc(N3CCC(C(=O)NCCN4CCCCC4C)CC3)sc2c1 (configuration not stated)
 : 1.1	2.3
38. O=C(NCCN1CCOCC1)c1cc2c(s1)-c1ccccc1OC2
 : 1	1.3
39. Cc1ccccc1Nc1c(-c2cccc(Br)c2)nc2c(C)cccn12
 : 1	0.51
40. COCCN(CCOC)c1nc(-c2ccc(Cl)cc2)nc2ccccc12
 : 1.3	4
41. COc1ccc(C(=O)NCc2nc3ccccc3n2Cc2ccccc2F)cc1OC
 : 0.92	-0.96
42. CCCCN(C)CCCNC(=O)c1ccc2c(c1)N=C(CCC)c1ccccc1S2
 : 1.3	3.4
43. Cc1nc(Sc2ccccc2)c2oc3ccccc3c2n1
 : 0.86	-1.7
44. Cc1ccc(CCNS(=O)(=O)c2ccc3c(c2)CCN3C(=O)C2CC2)cc1
 : 1	0.16
45. CCOC(=O)c1c(C)n(CCc2ccc(Cl)cc2)c2ccc(O)cc12
 : 1&0.99	0.039&-0.31
46. Cc1cccn2c(NC(=O)c3ccccc3)c(-c3ccccc3)nc12
 : 0.95	-1.1
47. CC1CCCC(C)N1c1nnc(NC(=O)c2csc3c2CCCC3)s1 (configuration not stated)
 : 0.96	-0.29
48. COc1cc(C2C(=O)N(C3CCCCCC3)CC(=O)N2C2CCCCC2)ccc1OC(C)C (configuration not stated)
 : 0.8	-3.5
49. OCCNc1nc(-c2ccccc2Cl)nc2ccccc12
 : 1.1	2.1
50. Cc1nc(N2CCOCC2)c2c(C)c(C(=O)N3CCN(c4ccccn4)CC3)sc2n1
 : 0.98	-0.036
51. COc1cc(OC)c(NC(=O)Cn2cc3c(n2)CCCC3)cc1Cl
 : 1	0.25
52. COc1cccc(CNC(=O)c2cc(=O)[nH]c3ccc(S(=O)(=O)N4CCCCC4)cc23)c1
 : 1	0.15
53. CCOc1ccccc1C1CC(=O)Nc2cc3c(cc21)OCCO3 (configuration not stated)
 : 0.99	-0.22
54. CCN(CC#CC(O)(c1ccccc1)C1CCCC1)C(C)C (configuration not stated)
 : 1.3	2.3
55. N#Cc1nc(COc2ccc(Cl)cc2)oc1NCc1cccnc1
 : 0.97	-1.3
56. CC(C)c1ccc(NS(=O)(=O)c2ccc3[nH]cc(C(=O)N4CCCC4)c(=O)c3c2)cc1
 : 0.94	-1.2
57. COc1cccc(Nc2nc(-c3ccc(S(=O)(=O)N4CCOCC4)cc3)cs2)c1
 : 1	0.61
58. COCCNc1ncnc2c1c(-c1ccccc1)cn2-c1ccc(Br)cc1
 : 1.1	1.4
59. CC(=O)N1c2ccc(S(=O)(=O)N3CCN(c4ccc(Cl)cc4)CC3)cc2CC1C (configuration not stated)
 : 0.9	-4.6
60. COc1ccc(O)c(-c2cc(-c3ccc(C(F)(F)F)cc3)n[nH]2)c1
 : 0.86	-2.5
61. O=C(NC1CC1)c1ccc2c(c1)N(Cc1ccc(Cl)cc1)C(=O)c1ccccc1S2
 : 1	0.25
62. CN(CC(=O)NC1CCCCCC1)S(=O)(=O)c1cccc2cccnc12
 : 0.93	-0.79
63. COc1ccc(-c2noc(CN3CCN(c4ccccc4)CC3)n2)cc1
 : 1	0.47
64. CC(C)CCNC(=O)CN1CCN(Cc2ccc(F)cc2Cl)C1=O
 : 1	0.98
65. O=C(NCc1ccc(F)cc1)c1nn2c(C(F)(F)F)cc(-c3ccc(Cl)cc3)nc2c1Cl
 : 0.86	-1.8
66. CCCCCCOc1ccc(C(=O)Nc2nc3ccc(OC)cc3s2)cc1
 : 1.1	0.058
67. O=C(Nc1ccccc1)c1cnc2sccn2c1=O
 : 0.95	-1.2
68. C=C(C)Cn1c(CCNC(=O)CCC)nc2ccccc21
 : 1.1	1.3
69. O=C(Nc1cccc(F)c1)c1cnc2sccn2c1=O
 : 0.89	-1.2
70. c1ccc(CCc2nc(-c3ccncc3)no2)cc1
 : 1.1	2.5

Carrying on:
Results follow in this order: CBX7 inh	CBX7 inh z-score
71. Cc1ccccc1NC(=O)c1cc2c(n(-c3ccccc3)c1=O)CCCC2=O
 : 0.9	-0.44
72. Fc1ccccc1-c1nc(-c2ccccc2)c(-c2cccs2)[nH]1
 : 0.93	-0.066
73. CCOC(=O)N1CCC(Nc2c(N3CCOCC3)c(=O)c2=O)CC1
 : 1	0.24
74. Cc1ccc2oc(-c3cccc(NC(=O)c4ccccc4Cl)c3)nc2c1
 : 0.92	-0.78
75. CCOC(=O)c1ccccc1NC(=O)c1nn(-c2ccc(OCC)cc2)c(=O)c2ccccc12
 : 1.1	1.1
76. CCCCSc1nnc2n(N)cnn12
 : 1.2	1.2
77. O=C(NCCC1=CCCCC1)c1cc(-c2ccccc2)nc2ccccc12
 : 1.1	0.58
78. Cc1onc(-c2ccccc2Cl)c1C(=O)Nc1ccccc1C(N)=O
 : 0.92	-1.8
79. COc1ccc(-c2cc(C(=O)Nc3c(C)nn(Cc4ccccc4Cl)c3C)no2)cc1OC
 : 1	0.51
80. COc1ccc(O)c(-c2cc(C(F)(F)C(F)F)nc(-c3ccccc3)n2)c1
 : 0.98	-0.23
81. CCOc1ccc(CCNC(=O)C2CCN(c3ccc(N4CCOCC4)nn3)CC2)cc1
 : 1	0.043
82. Cc1ccc2nc(SCCOc3ccccc3)[nH]c2c1
 : 1	1.3
83. COc1ccccc1NC(=O)C(Cc1ccccc1)NS(=O)(=O)c1ccc2c(c1)CCN2C(C)=O (configuration not stated)
 : 1	0.85
84. Cc1cc(NC(=O)c2cc(-c3cccs3)on2)nn1Cc1ccc(Cl)cc1
 : 0.95	-0.63
85. CCCNC(=O)CCc1c(C)nc2cc(-c3cccc(F)c3)nn2c1C
 : 1.1	1.3
86. C=CCn1c(C2CC(=O)N(c3c(C)cc(C)cc3C)C2)nc2ccccc21 (configuration not stated)
 : 1.1	0.38
87. Cc1ccc2c(c1)-c1c(cnn1CC(=O)Nc1ccc(Cl)cc1)CO2
 : 0.9	-1.9
88. O=C(NCc1cccnc1)C1=CCN(S(=O)(=O)c2ccccc2)CC1
 : 1.1	1.4
89. CC1CCN(c2nc3ccc(C(=O)NCc4ccccn4)cc3s2)CC1
 : 0.91	-1.9
90. COc1ccc(NC(=O)Cn2cnc3c(nnn3Cc3ccc(C)cc3)c2=O)cc1
 : 1	0.66

Brought forward from above: five entries, then new ones.
Results follow in this order: CBX7 inh	CBX7 inh z-score
86. C=CCn1c(C2CC(=O)N(c3c(C)cc(C)cc3C)C2)nc2ccccc21 (configuration not stated)
 : 1.1	0.38
87. Cc1ccc2c(c1)-c1c(cnn1CC(=O)Nc1ccc(Cl)cc1)CO2
 : 0.9	-1.9
88. O=C(NCc1cccnc1)C1=CCN(S(=O)(=O)c2ccccc2)CC1
 : 1.1	1.4
89. CC1CCN(c2nc3ccc(C(=O)NCc4ccccn4)cc3s2)CC1
 : 0.91	-1.9
90. COc1ccc(NC(=O)Cn2cnc3c(nnn3Cc3ccc(C)cc3)c2=O)cc1
 : 1	0.66
91. O=C(O)CCSc1nc2ccccc2n1C1CCCCC1
 : 1.1	1.7
92. COc1cccc(-c2cc(C(=O)Nc3cccnc3Cl)no2)c1
 : 1.2	3.4
93. Cc1ccc(S(=O)(=O)N2CCC(C(=O)N3CCC(C(=O)NCc4ccccc4)CC3)CC2)cc1
 : 0.83	-3.4
94. CCCCCCCNC(=O)c1c[nH]c2ccc(S(=O)(=O)N(C)c3ccc(CC)cc3)cc2c1=O
 : 1.2	1.5
95. CCS(=O)(=O)NC(C)C(c1cccs1)N1CCOCC1 (configuration not stated)
 : 0.98	-0.43
96. CC1CCCC(NC(=O)C2C3C=CC4(CN(Cc5ccccc5Cl)C(=O)C24)O3)C1C (configuration not stated)
 : 1.3	4
97. COc1ccc(CNC(=O)c2cc(Nc3ccccc3OC)nc3ccccc23)cc1
 : 0.9	-1.6
98. COc1ccc(NC(=O)CCCS(=O)(=O)c2nc(-c3cccs3)cc(C(F)(F)F)n2)cc1
 : 0.97	-0.69
99. CCOc1ccc(NC(=O)CCC(=O)Nc2ccc3nc(N4CC(C)CC(C)C4)cc(C)c3c2)cc1 (configuration not stated)
 : 0.97	-0.48
100. C=CCn1c(=O)c(C(=O)Nc2nc3ccc(F)cc3s2)c(O)c2ccccc21
 : 1	0.23
101. CCOC(=O)c1cc(-c2ccccc2)n(CCC(=O)Nc2ccc(F)c(F)c2)c1C
 : 1	0.57
102. Cc1cc(C)cc(NC(=O)CSc2nccn2-c2cccc(Cl)c2)c1
 : 0.81	-3.4
103. CCOc1ccc(NC(=O)Cn2cnc3c(nnn3-c3ccc(OC)cc3)c2=O)cc1
 : 0.93	-1.3
104. COCCNC(=O)C1CCCN(c2nnc(-n3cccc3)s2)C1 (configuration not stated)
 : 1.1	2.3
105. O=C(c1ccc(NC2=NC3CS(=O)(=O)CC3S2)cc1)N1CCN(c2cccc(Cl)c2)CC1 (configuration not stated)
 : 0.87	-2.5
106. C=CCOc1ccc(C(=O)N(Cc2ccc(CC)cc2)C2CCS(=O)(=O)C2)cc1 (configuration not stated)
 : 0.88	-0.12
107. Cc1ccc(C2CC(c3ccc(F)c(Br)c3)n3nnnc3N2)cc1 (configuration not stated)
 : 0.94	-2.2
108. COc1ccc(-c2nc3ccccc3c(C(=O)Nc3cccc(Cl)c3C)c2C)cc1
 : 1.3	1
